LT uptake inh: qHTS Assay for Anthrax Lethal Toxin Internalization | AID 912, 2007 | Potency, µM (series often up to 40 µM), without a hit: top-dose activity change, negative = inhibition, actives largely listed as inhibitors | Cells, anthrax lethal toxin internalization, FRET ratio (460/530) | 0.67% of 70,000 active; active = well fitted falling ratio curve with the 530 nm signal flat; inconclusive = other ratio curves, or a change in one channel alone; inactive = flat curves in the ratio and both channels; the % refers to the ratio; further: on the % scale 0 is the no-effect control and ±100 the full control effect; nearly all actives have a fitted effect of over 50% in size; tested in ME-180 cells; beta-lactamase reporter
Prx2 Sm inh: Schistosoma Mansoni Peroxiredoxins (Prx2); Schistosoma mansoni peroxiredoxin 2 (Prx2); S. mansoni Prx2 activity coupled to TGR/GSH (TGR is thioredoxin glutathione reductase), NADPH fluorescence loss, qHTS; some inactives read as strong as hits; Potency, µM; 0.07% of 65,000 active; active means full or partial inhibition curve with a strong effect at the top dose; inconclusive means weaker partial or single-point curve; inactive means no accepted curve; further: series up to 57 µM; many of its hits are not listed in these tables
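Enzyme mix: 100 uM NADPH, 25 nM TGR, 700 uM GSH, 50 nM Prx2 in 100 mM phosphate pH 7.4, 10 mM EDTA, 0.01% Tween-20. 15 min RT with compound; NADPH/GSH added, H2O2 starts reaction; NADPH fluorescence read 8 min.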
Active calls of the source: *; ? = inconclusive; · = no result given; & = joins results of further samples; [ ] = dose if it differs, or a comment. Potency means the concentration at half of the fitted maximal effect. This is a subset; rates above refer to the full screens.

SMILES	LT uptake inh	Prx2 Sm inh
CCCCOC(=O)c1[nH]c2c(c1C)C(=O)CC(c1cc(OC)c(OC)c(OC)c1)C2 (configuration not stated)	-11.8%	>57
CCOC(=O)Cc1csc(NC(=O)CCNS(=O)(=O)c2ccc3c(c2)CCC(=O)N3)n1	-5.8%	>57
N#CNC1=NCN(Cc2ccccc2)CN1	-5.4%	>57
COCCn1nnnc1C(c1ccc(OC)cc1OC)N1CCN(c2ccccc2)CC1 (configuration not stated)	-4.7%	>57
O=C(CCC(=O)Nc1nnc(C2CCCCC2)s1)NCc1cccs1	?	>57
O=C(CN(Cc1ccc2c(c1)OCO2)C(=O)c1cnsn1)NC1CCCC1	-5.8%	>57
CCc1ccc2[nH]c(=O)c(C(c3nnnn3CCOC)N3CCN(c4ccccc4F)CC3)cc2c1 (configuration not stated)	?	>57
CCC(=O)N/C(N)=N/c1nc(C)c2cc(OC)ccc2n1	-9.8%	·
O=C(CCCCCNS(=O)(=O)c1ccc(Br)cc1)NCCN1CCOCC1	-5.6%	>57
COc1cccc(NC(=O)Cn2c(=O)oc3ccccc32)c1	-19.7%	>57
CC1(C)CC(CC(=O)O)(c2ccccc2)CCO1 (configuration not stated)	2.4%	·
CC1(C)CC(=O)C=C(Nc2ccccc2F)C1	9.9%	·
COc1ccccc1CNC(=O)C(CCSC)NS(=O)(=O)c1ccc2c(c1)oc(=O)n2C (configuration not stated)	-0.6%	>57
COc1ccc(CC(NC(C)=O)C(=O)NC2CCN(c3nc(C)cc(C)c3C#N)CC2)c(OC)c1 (configuration not stated)	11.4%	>57
O=C(NCCC1=CCCCC1)C1CCN(S(=O)(=O)c2ccc(-n3cnnn3)cc2)CC1	?	>57
Cc1cnc(C(=O)Nc2ccc(-n3cnnn3)cc2)cn1	4.2%	>57
c1ccc2c(c1)ccc1cc3c(ccc4ccccc43)cc12	?	·
CN(CCNC(=O)C1CCN(S(=O)(=O)c2cnc[nH]2)CC1)Cc1ccccc1	-0.4%	>57
O=C(CN1C(=O)CCS(=O)(=O)c2ccccc21)NCc1ccc(F)cc1	-15.6%	>57
Cc1ccc(S(=O)(=O)Nc2ccc(Br)cc2/C=N/n2cnnc2)cc1	?	>57
O=C1CCCC(O)=C1C=NCCc1ccccc1	-6.1%	>57
CCOc1ccc(NC(=O)c2nnn(CC(=O)Nc3ccccc3OC)c2N)cc1	-2.3%	>57
C=C(C)Cn1c(CCNC(=O)C(C)C)nc2ccccc21	8.1%	>57
O=C(CN1CCOCC1)Nc1ccc(S(=O)(=O)N2CCCCCC2)cc1	-0.8%	>57
CC(C)[C@H](NC(=O)NCc1ccco1)C(=O)O	?	>57
Cn1cc(Cl)c(C(=O)N(Cc2ccccc2)c2ccccn2)n1	4.7%	>57
O=C(NC1CCCCC1)N1CCC(c2nc3ccccc3[nH]2)CC1	1.0%	>57
Cc1cccc(C)c1N1C(=O)c2ccccc2C1=O	-20.7%	·
CCn1c(SCC(=O)Nc2cccc(NC(=O)c3cccs3)c2)nnc1-c1ccncc1	6.1%	>57
O=C(CSc1nc2cc(Cl)ccc2s1)NC(=O)NCc1ccco1	?	>57
CC1CCCCC1NC(=O)c1ccc(CNc2c(N3CCCC3)c(=O)c2=O)cc1 (configuration not stated)	5.6%	>57
Cn1c(=O)n(CC(=O)Nc2cccnc2)c2ccccc21	4.9%	>57
CCOC(=O)c1cc(CN2CCOCC2)oc1-c1ccccc1	-16.3%	>57
O=C(c1ccco1)N1CCN(C2CCCC2)CC1	-11.6%	·
CC1CCCCN1C(=O)CSc1nnc(-c2ccc(Cl)s2)o1 (configuration not stated)	-9.9%	>57
COc1ccccc1CN(Cc1cc2cc(C)ccc2[nH]c1=O)Cc1nnnn1Cc1ccco1	?	>57
NCCNS(=O)(=O)c1cccc2c(Cl)cccc12	-22.0%	>25.6
Cc1ccc(NC(=O)CSCC(N)=O)cc1C	·	>57
O=C(O)CSc1cc(-c2ccccc2)nc2ccccc12	2.4%[8 µM]	>57
COc1cccc(CNC2CCCC2)c1	-11.7%	>57
Cc1cc2c(cc1C)NC(c1cccnc1)C1=C(CC(C)(C)CC1=O)N2 (configuration not stated)	7.9%	>57
O=C(CCCn1nnc(-c2cccnc2)n1)c1ccc(F)cc1	8.1%	>57
CCOc1ccc(N2C(=O)CC(N3CCN(c4ccc(C(=O)c5ccncc5)cc4)CC3)C2=O)cc1 (configuration not stated)	3.6%	>57
Cc1ccc(S(=O)(=O)N(Cc2ccc(F)cc2)Cc2ccco2)cc1	?	>57
Cc1ccc(CNC(=O)CN(C)S(=O)(=O)c2cccc3cccnc23)cc1	-7.7%	>57
CCOCCc1nnc(NC(=O)c2ccc(OC)c(OC)c2)s1	15.1%	>57
O=C(Cn1nnc(-c2ccncc2)n1)N1CCc2ccccc21	-1.9%	>57
CCOC(=O)C1CCCN(C(=O)c2ccc(OCC)cc2)C1 (configuration not stated)	-0.1%	·
O=C(NCc1cc(F)cc2c1OCCO2)[C@H]1C[C@@H]1[C@H](NP(=O)(c1ccccc1)c1ccccc1)c1ccccc1	?	>57
Cc1ccc(Nc2oc(C)nc2C#N)cc1	-1.6%	>57

Overlap with the part before: 3 entries; new compounds follow.
SMILES	LT uptake inh	Prx2 Sm inh
CCOC(=O)C1CCCN(C(=O)c2ccc(OCC)cc2)C1 (configuration not stated)	-0.1%	·
O=C(NCc1cc(F)cc2c1OCCO2)[C@H]1C[C@@H]1[C@H](NP(=O)(c1ccccc1)c1ccccc1)c1ccccc1	?	>57
Cc1ccc(Nc2oc(C)nc2C#N)cc1	-1.6%	>57
O=c1nc(C(F)(F)F)nc2ccccn12	10.1%	>57
CN(c1ccccc1)S(=O)(=O)c1cc(C(=O)N2CCN(c3ccccn3)CC2)ccc1Cl	?	>57
Cc1nn(Cc2ccc(C(=O)NC3CCCCC3)o2)c(C)c1Br	-9.0%	>57
COc1ccc(NC(=O)Cn2nnc(-c3ccccc3F)n2)cc1	15.6%	>57
COC(=O)C1=C(C(=O)c2ccc(C)cc2)C(c2ccc(O)c(OC)c2)n2nnnc2N1 (configuration not stated)	-2.4%	>57
O=C(O)CC1Sc2ccccc2NC1=O (configuration not stated)	-7.2%	>57
N#C/C(=C(/N)Sc1ccc(N)cc1)c1ccccc1C(F)(F)F	2.9%	·
CCOC(=O)C1CCCN(Cc2ccc3c(c2)OCO3)C1 (configuration not stated)	?	>57
C=CCn1c(O)c(C(CC)=NCCN2CCOCC2)c(=O)[nH]c1=O	·	>57
Cc1ccc(N2CC(C(=O)N3CCc4ccccc4C3)CC2=O)cc1 (configuration not stated)	0.6%	>57
CCOC(=O)C1CCN(C(c2cccs2)c2sc3nc(C)nn3c2O)CC1 (configuration not stated)	?	>57
Cc1nnc(SCc2cccs2)[nH]c1=O	-6.2%	>57
Cc1c(C#N)c2ncn(CCCN(C)C)c(=O)c2n1-c1ccccc1	-13.7%	>57
CCN1C(=O)c2cccc3c(S(=O)(=O)Nc4ncccc4C)ccc1c23	?	>57
COc1ccc(C(=O)Nc2ccc(Cl)c(Cl)c2)c(OC)n1	10.5%	>57
CCc1cccc(CC)c1N(COC)C(=O)Cn1c(C(C)O)nc2ccccc21 (configuration not stated)	1.8%	>57
O=C(NCCCN1CCCC1=O)c1cccnc1	5.6%	>57
O=C(O)CSc1nnc(Cc2ccccc2)n1Cc1ccccc1	11.8%	>57
Cn1c(=O)cc(OCCCC(=O)Nc2cccnc2)c2ccccc21	18.8%	>57
Cc1ccc(NC(=O)c2cc(S(=O)(=O)N3CCC4(CC3)OCCO4)ccc2F)cc1	-5.4%	·

Shown with two lines to a compound: entries from further up
The line under a structure holds: LT uptake inh, Prx2 Sm inh
> Cc1c(C#N)c2ncn(CCCN(C)C)c(=O)c2n1-c1ccccc1
  -13.7%, >57
> CCN1C(=O)c2cccc3c(S(=O)(=O)Nc4ncccc4C)ccc1c23
  ?, >57
> COc1ccc(C(=O)Nc2ccc(Cl)c(Cl)c2)c(OC)n1
  10.5%, >57
> CCc1cccc(CC)c1N(COC)C(=O)Cn1c(C(C)O)nc2ccccc21 (configuration not stated)
  1.8%, >57

Carrying on.
SMILES	LT uptake inh	Prx2 Sm inh
Cc1cc(N2CCC(C(=O)Nc3ccc(F)cc3)CC2)nc(-c2ccccc2)n1	?	>57
COCCCNC(=O)c1ccccc1SC	?	>57
CC1Cc2ccccc2N1S(=O)(=O)c1cccc(C(=O)c2nccn2C)c1 (configuration not stated)	-13.1%	>57
CC1CCCCN1c1nc(-c2ccncc2)nc2ccccc12 (configuration not stated)	-25.7%	>57
Cn1c(COc2ccccc2)nnc1SCC(=O)Nc1ccc(N2CCOCC2)c(Cl)c1	?	>57
COc1cc2c(cc1OC)CN(Cc1cccs1)CC2	-14.6%	·
CCCC1c2c(ccc3ccccc23)Oc2ccc3ccccc3c21	?	>57
CCOCC(=O)Nc1c(C(=O)Nc2ccc(OC)cc2OC)oc2ccccc12	?	>57
CC1(C)CC(NC(=O)CC2CCCCC2)CC(C)(C)N1	-15.6%	>57
Nc1cc(S(=O)(=O)O)cc2ccc(S(=O)(=O)O)cc12	-5.6%[8 µM]	>57

Full records from above:
CC1(C)CC(NC(=O)CC2CCCCC2)CC(C)(C)N1 in the list: LT uptake inh: -15.6%; Prx2 Sm inh: >57
COc1cc2c(cc1OC)CN(Cc1cccs1)CC2 in the list: LT uptake inh: -14.6%; Prx2 Sm inh: ·

New compounds follow.
SMILES	LT uptake inh	Prx2 Sm inh
Cc1cc(N2CCN(C)CC2)nc2ccc(NC(=O)c3ccc(Br)o3)cc12	12.6µM*	>57
COc1cc(OC)cc(-c2nnc(Nc3nc4c(F)cccc4s3)o2)c1	?	>57
C[C@@H](Cc1ccc(O)cc1)NC[C@@H](O)c1cc(O)cc(O)c1	5.9%[3.58 µM]	>57&>57
CCOC(=O)N1CCC(NC(=O)CCC(=O)N2CC(C)Oc3ccc(Cl)cc32)CC1 (configuration not stated)	-6.4%	>57
Cc1cc(C(=O)Nc2ccccc2C(F)(F)F)no1	-9.5%	>57
O=C(O)CCCC(=O)Nc1ccccc1C(=O)O	-14.8%	>57
O=c1[nH]c2cc3c(cc2cc1C(c1nnnn1CC1CCCO1)N1CCCCCC1)OCO3 (configuration not stated)	2.4%	>57
CCSc1ccccc1C(=O)NCc1ccc(S(N)(=O)=O)cc1	-24.5%	>57
CCCCN1c2cc(C)c(O)cc2C(C(=O)OCC)C1C (configuration not stated)	?	>57
COc1ccc(C2=NCC(CSc3nnnn3C)S2)cc1 (configuration not stated)	11.5%	>57
C=CCn1c(SCC(=O)Nc2ccc3c(c2)OCCO3)nnc1-c1ccccn1	-5.2%	>57
O=C(CCc1nc(-c2ccccc2F)no1)Nc1ccc(Oc2ccccc2)cc1	?	>57
Cc1ccccc1-c1ccc2ncnc(N(C)C)c2c1	-18.1%	>57
CC(CCc1ccccc1)NC(=O)CN1CCOc2ccccc21 (configuration not stated)	-28.7%	>57
COc1ccccc1NC(=O)C1CCCCN1S(=O)(=O)c1ccc(F)cc1 (configuration not stated)	0.3%	>57
CCOC(=O)C1=C(C)Nc2nc(SCc3cccnc3)nn2C1c1ccc(OC)cc1 (configuration not stated)	8.7%	>57
Cc1ccc(-n2c(SCC(=O)NCc3cccs3)nnc2-c2ccoc2C)cc1	-6.4%	>57
COC(=O)Cn1cnc2c(nnn2Cc2ccc(Cl)cc2)c1=O	-26.2%	>57
O=C(CN(Cc1ccco1)S(=O)(=O)c1cccs1)Nc1ccccc1C(F)(F)F	-7.2%	>57
COCCNC(=O)CN(c1cccc(OC)c1)S(=O)(=O)c1ccc(C)cc1	-3.3%	>57
CCN(CC)S(=O)(=O)c1ccc2c(c1)c(=O)c(C(=O)NCCCN(C)c1ccccc1)cn2C	-0.8%	>57
Cc1c(C(=O)Nc2ccc(F)cc2)oc2ccc(S(=O)(=O)N3CCC4(CC3)OCCO4)cc12	?	>57
CCCCOC(=O)c1ccc(NC(=O)c2ocnc2C)cc1	?	>57
Cc1nc(=O)c(-c2ccccc2)c(C)n1-c1ccc(C(=O)O)cc1	-0.5%	>57
COc1ccccc1CCNC(=O)c1cnn2c(C(F)F)cc(C)nc12	-13.3%	>57
COc1cccc(C(=O)N(c2ccc(OC)cc2OC)C2C=CS(=O)(=O)C2)c1 (configuration not stated)	-2.9%	>57
COC(=O)c1ccccc1NC(=O)c1ccccc1NS(C)(=O)=O	-4.1%	>57
COCCNS(=O)(=O)c1cc(F)ccc1OC	-21.6%	>57
N#CC1=C(N)C(C#N)(C#N)C2(CCC3(CC2)OCCO3)C2CC3(CC=C12)OCCO3 (configuration not stated)	5.7%	>57
CCCC(=O)c1cc(F)c(N2CCN(S(=O)(=O)c3ccccc3)CC2)cc1C	-20.8%	>57
COc1ccc(CCNC(=O)CN(C2CCCCC2)S(C)(=O)=O)cc1OC	16.3%	>57
O=C(CSc1nc2ccccc2c(=O)[nH]1)N1CCOCC1	6.0%	>57
